Assay outcomes as filed in PubChem BioAssay.
Bead autofluor: compound fluorescence in toxin protease inhibitor counterscreen | compound autofluorescence counterscreen, microsphere flow cytometry; active compounds read high | 3.1% of 360,000 active | AID 624483 | fluorescence intensity (test concentration not listed);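 active = at least 3 SD above the mean of all compounds, about 16000 in these data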;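 also: 100 nL of 1 mM stock went into each well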
PrP UTR inh: inhibition of PrP 5' UTR reporter expression. inhibition, % (concentration not given with the values). AID 488862. cell-based PrP 5' UTR mRNA reporter, plate reader. 0.35% of 340,000 active;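 active = every replicate at 50% or more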;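 also: 0 = median of the neutral control wells; tested in H4 reporter cells; numbers are from one replicate; inactives centre near -14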
* hit, by the source's call; & = joins results of further samples. An excerpt (hit frequency here may not be typical).

SMILES | Bead autofluor | PrP UTR inh
O=C(CNC(=O)c1ccc(Br)o1)OCc1ccc(Br)cc1 | 4399 | -8
Cc1cc(Cl)ccc1C1=CC(=O)C[C@H](c2ccc(F)cc2)C1 | 3742 | -2
COc1ccc(SCCN2CC[C@@H](NC(=O)OCc3ccccc3)CCC2=O)cc1 | 4419 | -10
COc1cc(/C=C2\SC(=O)N(c3ccc(Cl)cc3)C2=O)cc([N+](=O)[O-])c1O | 4647 | -17
O=S(=O)(c1ccccc1)C1CC1(c1ccccc1)c1ccccc1 (centres undefined) | 3271 | -30
Cc1cc([N+](=O)[O-])c(-c2ccc(/C=N/n3cnnc3)o2)cc1Cl | 11620 | -14
Oc1ccccc1C=NN=Cc1ccccc1Cl | 3081 | -56
Cc1cccc(C)c1-c1ccc(CN2C(CC(C)C)C(=O)N(Cc3cn(CC4CCCCC4)nn3)CCS2(=O)=O)cc1 (centres undefined) | 3002 | -11
CCOC(=O)Nc1ccc2c(c1)C(=NO)c1ccccc1-2 | 3856 | -138
Cc1ccc(S(=O)(=O)N2[C@@H](c3cccc(Cl)c3)C(C(=O)O)=CC[C@H]2c2ccc3c(c2)OCO3)cc1 | 3295 | -26
C[C@H]1COC(=O)[C@@H](NC(=O)OCC2c3ccccc3-c3ccccc32)C/C=C\C[C@H](CC(=O)NCCO)C(=O)N1 | 4592 | -12
COC(=O)C1C=CC(OC2OC(COC(C)=O)C(OC(C)=O)C(OC(C)=O)C2OC(C)=O)n2c(=O)n(-c3ccccc3)c(=O)n21 (centres undefined) | 3342 | -20
Cc1cc(C)c2c(=N)c3ccccc3n(CCCCCCCCn3c4ccccc4c(=N)c4c(C)cc(C)nc43)c2n1 | 3674 | -4
C=C(C=O)CC1CC(O)[C@]2(C)OC3C[C@@H]4OC5C[C@]6(C)O[C@]7(C)CCC8OC9C[C@]%10(C)OC(/C(C)=C\CO)C(O)CC%10OC9CC(C)C8OC7CC6O[C@]5(C)C/C=C\C4OC3CC2O1 (some centres undefined) | 4020 | -9
COc1cc(C2c3cc4c(cc3OC(Nc3ccc(C(=O)O)cc3)C2C)OCO4)cc(OC)c1OC (centres undefined) | 3242 | 37
CN1C[C@@H]2[C@@H]3C(=O)N(C)C(=O)[C@@H]3[C@](C)(C1=O)N2C(=O)c1ccccc1 | 3478 | -17
CC(=O)C1CCC2C3CC(O)C4CC(O)CCC4(C)C3CCC12C (centres undefined) | 4363 | -4
O=C(O)/C=C/C(=O)Nc1cccc2c1-c1ccccc1C2=O | 3772 | -17
COC(=O)c1ccccc1CC1Cc2cc3c(cc2C1=O)CCC3 (centres undefined) | 3029 | -82
C[C@H]1CN([C@@H](C)CO)C(=O)c2cccc(NC(=O)c3ccc(-c4nccs4)cc3)c2O[C@@H]1CN(C)C(=O)Nc1cccc2ccccc12 | 3562 | -20
COc1ccc2cc1Oc1ccc(cc1)C[C@H]1c3c(cc(OC)c4c3Oc3c(ccc5c3[C@H](C2)N(C)CC5)O4)CCN1C | 4126 | 4
O=C(COC(=O)CNC(=O)c1ccc(Cl)cc1)Nc1ccc(Cl)cn1 | 3908 | -6
COC(=O)C1=C(c2ccc(-c3ccccc3)c(F)c2)C[C@@H]2CC[C@H]1N2C(=O)NCc1cc(C)oc1C(F)(F)F | 3747 | -13
COc1ccc(NC(=O)Nc2ccc3c(c2)C(=O)N([C@H](C)CO)C[C@H](C)[C@@H](CN(C)C(=O)NC2CCCCC2)O3)cc1 | 3852 | -24
O=C1CCCC/C=C\C[C@H](CC(=O)N(CCO)Cc2ccccc2)C(=O)N[C@@H](Cc2ccccc2)CO1 | 3682 | -18
CSc1cccc(NP2(=O)OCC(C)([N+](=O)[O-])CO2)c1 (centres undefined) | 2881 | -20
CCOC(=O)c1ccc(N2C(=O)CC(N3CCN(C/C=C/c4ccccc4)CC3)C2=O)cc1 (centres undefined) | 3709 | 2
COC(=O)C1=C(C)N(Cc2ccccc2)C(=NCc2cc(OC)c(OC)c(OC)c2)N[C@H]1CCc1ccccc1 | 5608 | -14
Cc1cn(CC(=O)NCc2ccccc2)c(=O)[nH]c1=O | 3381 | -20
CCCCn1c2c(c(=N)c3c1CCC3)CCC2 | 3258 | -4
COc1cccc(-c2sc3ccccc3c2-c2ccc(OCCN3CCCCC3)cc2)c1 | 3810 | -10
O=C(N/N=C/C=C\c1ccccc1)c1cnccn1 | 4629 | -31
CC1(C2CCC3(C)OC3C2)CO1 (centres undefined) | 4235 | -12
COC(=O)C1=C(c2ccc3ccccc3c2)C[C@@H]2CC[C@H]1N2C(=O)NCc1ccco1 | 3623 | -26
COc1ccc(S(=O)(=O)N(C)C)cc1NC(=O)C1CCN(c2ncnc3sc(C)c(C)c23)CC1 | 3797 | -23
C/C(=N\NC(=O)C1CC1)c1ccc(C)c(C)c1 | 6056 | -6
CCCCC(CC)CN1CN(CC(CC)CCCC)CC(C)(N)C1 (centres undefined) | 5386 | -4
C[C@H](CO)N1C[C@H](C)[C@@H](CN(C)Cc2ccc(-c3ccccc3)cc2)Oc2c(NS(=O)(=O)c3cn(C)cn3)cccc2C1=O | 3644 | -10
C#CCOCCOCCOCCNc1nc(N2CCN(C(=O)CCCCCCCCCCNC(=O)Cn3cc(CCCCCN)nn3)CC2)nc(N2CCN(C(=O)CCCCCCCCCCNC(=O)[C@@H](CCC(=O)O)n3cc(CCCCCN)nn3)CC2)n1 | 4038 | -17
COc1cc(C#Cc2c(-c3cncn3C)n(C)c3ccc(-c4ccc5cc[nH]c5c4)cc23)cc(OC)c1 | 4116 | -38
CCN1C(=NCCOC)N[C@@H](c2ccccc2)[C@H](C(=O)OC)[C@H]1C | 3091 | -14
Clc1nnc2c3ccccc3ccn12 | 3699 | -24
FC(F)(F)c1cc(CO[C@@H]2CCCN[C@@H]2c2ccccc2)cc(C(F)(F)F)c1 | 4217 | -14
C[C@H](NC(=O)c1[nH]cnc1C(=O)Nc1cccc(Cl)c1)c1ccccc1 | 4125 | -25
COC(=O)c1sc(NC(=O)c2ccc3c(c2)OCO3)c(C#N)c1C | 3736 | -18
CC1CCCCN1C(=O)COC(=O)c1ccc(N2CCCC2=O)cc1 (centres undefined) | 3461 | -28
COc1ccc2c(c1)OC[C@H]1[C@H]2N2C(=O)c3ccc(C)cc3NC(=O)[C@@]2(C)[C@H]1c1ccccc1 | 3914 | -11
Cc1ccc(S(=O)(=O)N(C)C[C@@H]2Oc3ccc(NC(=O)Nc4cccc5ccccc45)cc3C(=O)N([C@H](C)CO)C[C@H]2C)cc1 | 3809 | -8
C=CCC[C@@H](Cc1ccc(F)cc1)C(=O)OCCNC(=O)[C@@H](CC=C)CC(=O)N[C@H](CO)Cc1ccccc1 | 4182 | -26
O=C(NCCCCc1ccccc1)c1cccc(NC(=O)C2CCCCC2)c1 | 3691 | -26
C[C@H](CO)N1C[C@H](C)[C@@H](CN(C)C(=O)Nc2ccc3c(c2)OCO3)Oc2ccc(NC(=O)Cc3ccccc3)cc2C1=O | 3874 | -19
c1ccc(-c2cc3cc4c(cc3cn2)OCO4)cc1 | 3806 | -31
COC(=O)C1=C(c2ccccc2OCc2ccccc2)C[C@@H]2CC[C@H]1N2C(=O)NCc1ccc(Br)cc1 | 4128 | -6
NNCc1ccccc1 | 4416&5776 | -32
COC1=CC(=O)c2c(ccc3ncnc(N)c23)C1=O | 3413 | 32
COc1cc(OC)c2c3c(c(C4CCCCC4)nc2c1)CCCC3 | 4017 | -16
Fc1ccc2cc(CCO[C@H]3CCCCO3)ncc2c1 | 3010 | -28
CN1OC[C@@H]2CN(C(=O)C(C)(C)C)[C@H](c3cccc(-c4ccccc4)c3)C[C@@H]21 | 3799 | -28
C=CCn1c(SCC(=O)N2CCCC2=O)nc2sc(CC)cc2c1=O | 2934 | -11
COCC(=O)N1CCC2CC1c1cc(Cl)ccc12 (centres undefined) | 3742 | -6
(more compounds)
SMILES | Bead autofluor | PrP UTR inh
CCN1C[C@@H]2[C@@H]3C(=O)N(Cc4ccccc4)C(=O)[C@@H]3[C@](Cc3ccccc3)(C1=O)N2C(=O)c1ccc(Br)cc1 | 4090 | -19
COc1ccccc1NP1(=O)OCC(C)([N+](=O)[O-])CO1 (centres undefined) | 3339 | -12
COC(=O)C1=C(C(=O)OC)C(C(=O)OC)C(C(=O)OC)C(C(=O)OC)(C(=O)OC)C(C(=O)OC)=C1C(=O)OC (centres undefined) | 3999 | -22
Cc1ccc(S(=O)(=O)/N=C2\C=C(NS(=O)(=O)c3ccccc3)C(=O)c3ccccc32)c(C)c1 | 3311 | -3
Cc1ccc(NC(=O)c2ncn(CCCNCCN3CCOCC3)n2)cc1C | 2867 | 3
COc1ccc2nc3c(C)n(C)ccc-3c2c1 | 3820 | 24
COC1=C(OC)C(=O)C(Sc2ccc3ccccc3c2)=CC1=O | 3485 | -32
CC(C(=O)OCC(=O)NC1CCCCC1)N1C(=O)c2ccccc2C1=O (centres undefined) | 3785 | -32
O=[N+]([O-])c1ccc(COc2cccc(CN3CCOCC3)c2)cc1 | 3651 | -30
Cc1onc(-c2c(F)cccc2Cl)c1C(=O)N[C@@H]1C(=O)N2C(C(=O)O)C(C)(C)S[C@H]12 (some centres undefined) | 5792 | 7
CCCCCCSc1ccc([C@@H]2[C@H]3C(=O)N(CC)C(=O)[C@H]3[C@]3(C(=O)OC)CCCN23)cc1 | 5108 | -9
CON(C)C(=O)/C=C/CCCCNC(=O)OC(C)(C)C | 4067 | -14
Cc1cc(=O)[nH]c(NN=Cc2c(Cl)cccc2Cl)n1 | 4264 | -36
Nc1nc(Cl)nc2c1ncn2C1OCC(O)C(O)C1O (centres undefined) | 4327 | -3
O=C1CC(=O)N(Cc2ccccc2)C(=O)N1Cc1ccccc1 | 5005 | -33
COc1ccc(-c2cc(-c3ccccc3)nc(N)n2)c(O)c1 | 3437 | -10
CC(C)NC(=O)N(C)C[C@H]1Oc2ccc(NS(=O)(=O)c3cn(C)cn3)cc2C(=O)N([C@H](C)CO)C[C@@H]1C | 3668 | -12
COc1ccccc1-c1sc2cc3c(cc2c1-c1ccc2c(c1)OCO2)OCO3 | 3940 | -19
Cc1ccc(NC(=O)c2ccc(Br)o2)c([N+](=O)[O-])c1 | 4291 | -9
COCO/C=C(\NC(C)=O)c1ccccc1 | 3837 | -13
O=C(O)CCC(=O)OCCN(Cc1ccc(Oc2ccc([N+](=O)[O-])cc2)cc1)C(=O)C(Cl)Cl | 3885 | -8
CC(C)(C)OC(=O)N(CCc1ccccc1)Cc1ccc(OCc2cccc(NC(=O)/C=C/c3ccccc3)c2)cc1 | 3911 | -20
Cc1cnc(C=NNC(N)=S)c2cccc(N)c12 | 3468 | 10
O=C(CC(=O)NN=Cc1ccc2c(c1)CCC2)NN=Cc1ccc2c(c1)CCC2 | 3811 | -5

Full records as entered above:
`COc1ccc(-c2cc(-c3ccccc3)nc(N)n2)c(O)c1` is listed with Bead autofluor: 3437; PrP UTR inh: -10
`COCO/C=C(\NC(C)=O)c1ccccc1` is listed with Bead autofluor: 3837; PrP UTR inh: -13

(listing goes on)
SMILES | Bead autofluor | PrP UTR inh
Cc1cc2cc3c(=O)[nH]c(=O)nc-3n(CC(O)C(O)C(O)CO)c2cc1C (centres undefined) | 3363 | -33
CC(Oc1ccccc1Cl)C(=O)Nc1ccc(S(=O)(=O)N2CCN(C)CC2)cc1 (centres undefined) | 4288 | -22
c1ccc(-c2cncnc2)cc1 | 3020 | -10
CC(=O)N(/N=C1\Sc2ccccc2C1=O)c1ccccc1 | 2991 | -71
OCC[C@H]1C[C@@H](O)[C@H](O)[C@]2(CCc3ccccc3CO2)O1 | 3952 | 9
C[C@H]1CN=C(N(C)C)N1CCCC1CCCCC1 | 4257 | 3
C[C@@H]1COC(=O)[C@@H](Cc2ccc(F)cc2)C/C=C\C[C@@H](CC(=O)N[C@H](CO)Cc2ccccc2)C(=O)N1 | 3685 | -7
C[C@@]12C(=O)Nc3cc(Cl)ccc3C(=O)N1[C@H]1c3ccccc3OC[C@@H]1[C@@H]2c1ccccc1 | 4102 | -44
C=CC(=O)Nc1ccc(Nc2ccnc(Nc3ccc(N4CCN(C)CC4)cc3)n2)cc1 | 2824 | 23
CCCCN1CC(COCc2ccccc2)OCCS1(=O)=O (centres undefined) | 3877 | -15
O=[N+]([O-])O[C@H]1CO[C@H]2[C@@H]1OC[C@H]2O[N+](=O)[O-] | 6915 | -23
O=C(C[C@H]1C/C=C\CCCC(=O)OC[C@H]2CCCN2C1=O)NCCO | 3020 | -31

Part of the list above in order of length of the SMILES, largest number first:
SMILES | Bead autofluor | PrP UTR inh
C[C@H]1COC(=O)[C@@H](NC(=O)OCC2c3ccccc3-c3ccccc32)C/C=C\C[C@H](CC(=O)NCCO)C(=O)N1 | 4592 | -12
COC(=O)C1=C(c2ccccc2OCc2ccccc2)C[C@@H]2CC[C@H]1N2C(=O)NCc1ccc(Br)cc1 | 4128 | -6
Cc1cc(Cl)ccc1C1=CC(=O)C[C@H](c2ccc(F)cc2)C1 | 3742 | -2

Next section
SMILES | Bead autofluor | PrP UTR inh
NNC(N)=O | 5742 | -12
COC1C(CO)OC(n2cnc3c(=S)nc(N)[nH]c32)C1O (centres undefined) | 3731 | -12
CC(C)C[C@@H](CNCC(=O)[C@H](CC(=O)O)NC(=O)c1[nH]cnc1C(=O)N[C@H](CN)CC(C)C)NC(=O)c1nc[nH]c1C(=O)N[C@@H](Cc1ccccc1)C(=O)O | 3495 | -18
C[C@@H]1CN([C@@H](C)CO)C(=O)c2cc(NC(=O)C3CC3)ccc2O[C@@H]1CN(C)C(=O)NC1CCCCC1 | 3816 | -15

Quoted from the listing.
Result for Cc1cc(=O)[nH]c(NN=Cc2c(Cl)cccc2Cl)n1 under PrP UTR inh: -36
Result for CCOC(=O)Nc1ccc2c(c1)C(=NO)c1ccccc1-2 under PrP UTR inh: -138
Result for CON(C)C(=O)/C=C/CCCCNC(=O)OC(C)(C)C under Bead autofluor: 4067
Result for O=C(O)/C=C/C(=O)Nc1cccc2c1-c1ccccc1C2=O under PrP UTR inh: -17
Result for COC(=O)C1=C(C)N(Cc2ccccc2)C(=NCc2cc(OC)c(OC)c(OC)c2)N[C@H]1CCc1ccccc1 under PrP UTR inh: -14
Result for COC1=C(OC)C(=O)C(Sc2ccc3ccccc3c2)=CC1=O under Bead autofluor: 3485
Result for COC(=O)C1=C(c2ccccc2OCc2ccccc2)C[C@@H]2CC[C@H]1N2C(=O)NCc1ccc(Br)cc1 under Bead autofluor: 4128
